Bioassay records: PubChem, National Center for Advancing Translational Sciences (NCATS)
TRPML1 agonist: qHTS for Agonists of the Human Mucolipin Transient Receptor Potential 1 (TRPML1) | Mucolipin-1 (Homo sapiens), Q9GZU1 | TRPML1-expressing cells, Ca2+ dye fluorescence, FDSS; host cell line not named in the record; reference of the full effect not given here | AID 624414, 2012 | hit rate 0.12% among 410,000 | activation, % (test concentration not listed); in the data active = activation above about 50%; inconclusive = about 30% to 50%; inactive = below about 30%; further: 0% is about no effect; the text of the record puts the active cut at 80%
Target sequence (Q9GZU1 whole entry, looked up): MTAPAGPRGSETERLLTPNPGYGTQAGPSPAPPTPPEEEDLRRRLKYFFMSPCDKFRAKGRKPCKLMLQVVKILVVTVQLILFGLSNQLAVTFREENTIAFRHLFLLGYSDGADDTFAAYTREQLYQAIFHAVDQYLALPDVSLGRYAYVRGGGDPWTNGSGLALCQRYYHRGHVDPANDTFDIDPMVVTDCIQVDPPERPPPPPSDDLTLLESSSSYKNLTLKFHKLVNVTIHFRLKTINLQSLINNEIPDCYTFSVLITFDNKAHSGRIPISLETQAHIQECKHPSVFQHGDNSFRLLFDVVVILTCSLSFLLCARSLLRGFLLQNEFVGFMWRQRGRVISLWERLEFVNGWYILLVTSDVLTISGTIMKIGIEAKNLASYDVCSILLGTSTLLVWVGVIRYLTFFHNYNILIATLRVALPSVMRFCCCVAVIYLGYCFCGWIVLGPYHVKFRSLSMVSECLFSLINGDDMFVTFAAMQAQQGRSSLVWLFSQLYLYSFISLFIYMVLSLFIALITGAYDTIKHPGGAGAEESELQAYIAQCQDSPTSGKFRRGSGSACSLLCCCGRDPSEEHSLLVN
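Agonist activity was taken from a 110 s kinetic Ca2+ dye read on the FDSS after pinning compounds onto TRPML1-DL cells. The cells were seeded at 1,500/well with Tet inducer, incubated about 16 h, then dye-loaded at room temperature.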
D2 ag: Beta-Arrestin HTS for Positive Allosteric Modulators of the Human D2 Dopamine Receptor: Agonists; D(2) dopamine receptor (Homo sapiens), P14416; DiscoveRx PathHunter D2 beta-arrestin, luminescence, 90 min; 100% = 57 uM dopamine signal; activation, % (no concentration beside the values); hit rate 0.084% among 360,000; AID 624465, 2012; in the data active = activation above about 40%; inconclusive = about 15% to 40%; inactive = below about 15%; further: compound concentration not given in the record; the text of the record calls up to 30% inactive
Target sequence (P14416 whole entry, looked up): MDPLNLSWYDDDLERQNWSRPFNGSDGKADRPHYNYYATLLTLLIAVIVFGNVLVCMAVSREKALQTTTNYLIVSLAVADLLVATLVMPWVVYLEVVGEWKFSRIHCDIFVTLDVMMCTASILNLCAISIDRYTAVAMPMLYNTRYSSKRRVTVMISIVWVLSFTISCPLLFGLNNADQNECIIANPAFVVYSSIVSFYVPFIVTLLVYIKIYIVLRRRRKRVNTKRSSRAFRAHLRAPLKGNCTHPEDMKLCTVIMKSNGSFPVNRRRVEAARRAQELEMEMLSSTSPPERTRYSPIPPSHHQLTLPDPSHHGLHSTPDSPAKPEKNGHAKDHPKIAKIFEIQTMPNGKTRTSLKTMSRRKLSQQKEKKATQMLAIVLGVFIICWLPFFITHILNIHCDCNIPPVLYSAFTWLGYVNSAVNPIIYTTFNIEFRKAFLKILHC
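Agonist mode: compounds alone added to overnight-plated D2 PathHunter cells for 90 min at 37 C, with 57 uM final dopamine (EC100) defining full response. Beta-arrestin recruitment detected by chemiluminescent reagent, read after 1 h at ambient temperature.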
PINK1 expr mod: A Quantitative High throughput Screen to Identify Chemical Modulators of PINK1 Expression; PINK1 immunofluorescence, high-content cytometry, 24 h; Potency, µM (series often up to 76.6 µM), inactives show top-dose activation (PINK1 increase), actives largely listed as activators; hit rate 0.2% among 410,000; AID 624263, 2012; active = well fitted activation curve with a large enough effect; inconclusive = small, poorly fitted or top-dose-only effect; inactive = flat fitted curve, though single readings scatter; cell line not stated here;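 further: potency means the concentration at half of the fitted maximal effect; % of control where 0% means no effect; nearly all actives have a fitted effect of over 65% in size; a mitochondrial uncoupler was the plate control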
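Fluorescence from anti-PINK1 antibody, together with nuclear and cell stains, was scanned on a laser-scanning cytometer. Before staining, stable-line cells were incubated 24 hours with compounds at 5 concentrations; primary antibody 12 h at 10 degrees C.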
TRPML1 blocker: qHTS for Inhibitors of the Human Mucolipin Transient Receptor Potential 1 (TRPML1); AID 624415, 2012; TRPML1-inducible cells, Ca2+ dye fluorescence, FDSS; active compounds read low; inhibition of EC80 agonist-evoked calcium signal; hit rate 0.02% among 390,000; activity change, negative = inhibition, % (no concentration beside the values); in the data active means activity change below about -50%; inconclusive means about -30% to -50%; inactive means above about -30%;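 further: stimulus is agonist 54-4 at its EC80 concentration; on the % scale 0 is the no-effect control and ±100 the full control effect; compound concentration not given in the record; the text of the record puts the active cut at -80%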
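Tet-induced TRPML1-DL cells loaded with Ca8 no-wash calcium dye were read kinetically on FDSS. Compound addition was followed by EC80 agonist 54-4 (4 uM final); inhibition was read over 110 s.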
Six1-Eya2 blk: qHTS Assay for Inhibitors of the Six1/Eya2 Interaction; hit rate 0.56% among 360,000; Homeobox protein SIX1 (Homo sapiens) + Protein phosphatase EYA2 (Homo sapiens), …; activity change, % (no concentration beside the values); AlphaScreen GST-Six1/His-Eya2 binding, biochemical; active compounds read low; control for the full effect not named in the record; AID 651725, 2012; in the data active = activity change below about -65%; inconclusive = about -30% to -65%; inactive = above about -30%; further: on the % scale 0 is the no-effect control and ±100 the full control effect
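AlphaScreen luminescence read after one hour at 37 °C in darkness. Pin-transferred compounds met GST-Six1 and His-Eya2 protein (5X stock 250 nM/500 nM) plus glutathione donor and Ni-chelate acceptor beads (5X, 50 ug/mL).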
D2 potentiator: Beta-Arrestin HTS for Positive Allosteric Modulators of the Human D2 Dopamine Receptor: Potentiators. AID 624464, 2012. DiscoveRx D2 beta-arrestin cells, luminescence, 90 min; 100% = 57 uM dopamine signal. hit rate 0.23% among 360,000. potentiation, % (no concentration beside the values). D(2) dopamine receptor (Homo sapiens), P14416; active = potentiation of 50% or more; inconclusive = 30% to 50%; inactive = 30% or less;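 further: compound concentration not given in the record; tested on top of an EC20 dose of dopamine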
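D2 cells co-treated with compound plus 50 nM dopamine (EC20) for 90 min at 37 deg C to detect potentiation. Beta-arrestin recruitment was read as enzyme-fragment luminescence after 1 h at ambient temperature. Full response was set by 57 uM dopamine.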
* = called active by the depositor; u = inconclusive; x = no result given; & = joins results of further samples; [ ] = another dose, or the depositor's remark. Compounds were not picked by outcome; 1% or so of the library scored in one or more.

SMILES	TRPML1 agonist	D2 ag	PINK1 expr mod	TRPML1 blocker	Six1-Eya2 blk	D2 potentiator
Cc1cc(SCC(=O)N(CC(C)C)c2c(N)n(CC(C)C)c(=O)[nH]c2=O)nc2ccccc12	-0.4	-1.8	1.0%	-11	-10	-2
CCCCCc1cc(=O)oc2c(C(CCN3CCCC(C)C3)c3ccc(N(C)C)cc3)c(OC)cc(OC)c12 (configuration not stated)	0.2	-0.4	0.3%	-19	u	-21
COc1ccnc(CN(C)C(=O)C2CCC(=O)N(CCN(C)C)C2)c1 (configuration not stated)	4.5	0.9	-1.4%	13	1	-7
O=C(O)C(C(O)c1ccccc1)[n+]1ccccc1 (configuration not stated)	-0.4	-2.7	-0.1%	3	11	-7
CCOc1ccc(Br)cc1C(=O)N/N=C/c1ccccn1	3.6	-0.6	2.6%	2	-12	-5
CCCCNC(=S)N=Nc1c(O)n(Cc2ccccc2)c2ccccc12	-0.6	-5.1	1.0%	28	u	-40
COc1ccc(N(C(=O)c2ccco2)C(C(=O)NC2CCCC2)c2ccc(N3CCOCC3)cc2)c(OC)c1 (configuration not stated)	1.2	-4.7	-1.0%	30	1	-8
CCOC(=O)CSc1ccc(C(=O)Nc2ccc(Cl)cc2)cn1	0.1	-4.4	10%	5	4	-17
C=CCn1c(COc2ccccc2OC)nc2ccccc21	-1.6	8.7	-1.8%	1	5	-2
CC(=O)Nc1cccc(/C(C)=N/NC(=O)c2ccc3c(c2)OCO3)c1	0.4	-2.0	-0.2%	3	4	-6
Cc1cc(C)n(C(N)=NC(=O)c2ccccc2)n1	1.3	0.0	1.8%	-12	3	-6
S=C(NCc1ccco1)Nc1ccccc1	3.4	2.3	-1.2%	12	-1	-3
CCO[C@H]1OC(C(=O)NCc2nc3ccccc3[nH]2)=C[C@@H](c2ccc3c(c2)OCO3)[C@@H]1CCCO	0.8	3.1	0.9%	11	-2	6
CC(=O)c1cccc(NC(=O)C(C)OC(=O)c2ccc3ncsc3c2)c1 (configuration not stated)	0.6	0.2	0.1%	-9	-1	-19
CN(C(=O)c1cccc(NC(=O)Cc2ccc(NC(=O)C3CCCN(C(=O)C4CCCCC4)C3)cc2)c1)C1CCCCC1 (configuration not stated)	1.6	3.4	-0.5%	18	-4	6
Cc1ccc(C(=O)N/N=C/C=C/c2ccccc2)o1	-0.2	3.7	-0.8%	14	-6	-8
CCc1nnc(NC(=O)C2CCN(c3cnccn3)CC2)s1	0.0	-1.5	3.5%[38.3 µM]	-1	5	-7
Cc1c(C(=O)NCc2cccnc2)oc2ccccc12	-0.9	-1.8	-22%[38.3 µM]	4	3	-2
Nc1nccnc1C(=O)OCC(=O)NC1CCCc2ccccc21 (configuration not stated)	0.6	-3.0	0.1%	-15	4	0
CCCC(NC(=O)COc1cc2c(c3oc(=O)c(C)c(C)c13)CCC(C)(C)O2)C(=O)O (configuration not stated)	1.8	u	-2.2%	8	-5	4
O=C1NCCCCC1NC1CC(=O)N(c2ccccc2)C1=O (configuration not stated)	0.1	-2.2	0.0%	8	0	19
Cc1cc([N+](=O)[O-])ccc1NC1CCCC1	3.3	3.0	2.6%	5	-1	-14
O=S(=O)(c1cccc(S(=O)(=O)N2CCN(c3ncccn3)CC2)c1)N1CCOCC1	0.0	-2.0	0.1%	14	2	-9
Cc1nn(CC(C)C)c(Cl)c1C(=O)N(c1ccc(Cl)cc1F)S(C)(=O)=O	2.7	-2.3	2.5%	11	-4	-2
COc1cccc(CN(C)C(=O)Nc2cccc(C(F)(F)F)c2)c1OC	0.6	-2.5	-2.0%	2	10	-9
The list goes on.
SMILES	TRPML1 agonist	D2 ag	PINK1 expr mod	TRPML1 blocker	Six1-Eya2 blk	D2 potentiator
COc1ccc(CN2C(=O)C(CC(C)C)Nc3ncnc(N4CCN(c5ccccc5)CC4)c32)cc1 (configuration not stated)	-0.2&-0.4	-0.4&-7.3	6.1%&5.2%	68&36	-19&-21	-64&-14
O=C(N/N=C/c1coc2ccccc2c1=O)c1cn(-c2ccccc2)nc1-c1ccccc1	2.6	-0.2	13%	-10	-9	-13
C[C@@H]1CN([C@H](C)CO)C(=O)c2cc(Br)cnc2O[C@@H]1CN(C)C(=O)Cc1ccccc1	x	-3.2	1.5%	x	2	x
Cc1ccc(SC(C)c2nc(-c3ccccc3)no2)cc1 (configuration not stated)	3.9	0.7	1.9%	19	270	23
CC(C)(Oc1ccc(Cl)cc1)C(=O)Nc1cccc(-c2cn3cccnc3n2)c1	-0.2	x	0.1%	-10	x	x
CCOP(=O)(OCC)C(Nc1cccc(C)c1)c1ccc(F)cc1 (configuration not stated)	-0.7	-3.7	4.9%	14	0	-7
O=C(C(=O)N(Cc1ccccc1)Cc1ccccc1)c1c(-c2ccccc2)[nH]c2ccccc12	0.7	u	-1.0%	16	-14	x
COc1cc(C(=O)NCc2nnc(SCC(=O)N3CCCCC3)o2)cc(OC)c1OC	-0.8	-2.3	-0.1%	-14	1	15
COCCN(CC(=O)NCc1ccccc1)C(=O)CCC(=O)Nc1nccs1	-0.4	-3.5	0.3%	-8	7	-6
CCO[C@@H]1OC(C(=O)N2CCN(Cc3ccc4c(c3)OCO4)CC2)=C[C@H](c2coc3ccccc3c2=O)[C@H]1CCCO	-1.0	4.0	1.9%	-12	-5	-27
CCOC(=O)Cn1c(=NC(=O)C2COc3ccccc3O2)sc2cc(S(N)(=O)=O)ccc21 (configuration not stated)	1.8	1.3	4.1%	4	-6	10
O=C(N/N=C/c1cccc(C(F)(F)F)c1)C1CCN(c2ncc(C(F)(F)F)cc2Cl)CC1	-0.3	0.3	4.6%	14	-2	0
CCCCCN(C(=O)CCC(=O)OCC(=O)N1CCC(C)CC1)c1c(N)n(CCCC)c(=O)[nH]c1=O	0.2	-4.3	1.0%	20	0	0
O=C(CSc1nnc(NC2CCCCC2)s1)Nc1ccc(N2CCOCC2)cc1	0.9	1.9	-3.4%[38.3 µM]	31	2	-9
Cc1ccccc1OCCn1nc(C(=O)O)c2ccccc2c1=O	3.9	-2.7	0.4%	20	-1	-10
COc1cccc(C2N(c3ccccn3)C(=O)C3CCCN32)c1OC (configuration not stated)	1.8	-2.0	-1.5%	36	10	-7
O=C(CSc1ncc(-c2ccc(F)cc2)n1Cc1ccco1)Nc1nccs1	2.6	-1.7	6.2%	4	-5	-8
COc1cccc(-c2nc3ccccc3c(=O)o2)c1	1.3	1.2	8.0%[38.3 µM]	-9	0	2
CCOCCCNC(=S)NCCCNc1nc2c(C)cc(C)cc2cc1C#N	5.0	5.0	2.9%	-5	39	-15
COc1ccc(S(=O)(=O)N(CC(=O)NCc2ccco2)c2ccc(C)cc2)cc1OC	-1.4	0.3	0.6%	1	1	0
O=C(CNC(=O)c1ccc(F)cc1)NCc1ccc(S(=O)(=O)N2CCOCC2)cc1	-0.2	-2.9	0.7%	-10	6	-14
CC1CN(S(=O)(=O)c2ccc(C(=O)Nc3nccs3)cc2)CC(C)O1 (configuration not stated)	-0.2	-3.1	-0.1%	-17	-12	-10
CC1CCN(c2nc3c(=O)[nH]c(N)nc3n2[C@@H]2O[C@H](CO)[C@@H](O)[C@H]2O)CC1	0.8	-2.5	-0.1%	-2	0	-3
O=C(CN1CCCC1)N1CCCc2ccccc21	-0.1	-5.2	-0.6%	-8	-4	-15
O=c1c2c3c(sc2n(CCN2CCCC2)c(=O)n1Cc1ccccc1)CCCCC3	0.5	-2.3	u	-4	-19	-22

10 neighbouring compounds out of the list so far:
SMILES	TRPML1 agonist	D2 ag	PINK1 expr mod	TRPML1 blocker	Six1-Eya2 blk	D2 potentiator
COc1ccc(CN2C(=O)C(CC(C)C)Nc3ncnc(N4CCN(c5ccccc5)CC4)c32)cc1 (configuration not stated)	-0.2&-0.4	-0.4&-7.3	6.1%&5.2%	68&36	-19&-21	-64&-14
O=C(N/N=C/c1coc2ccccc2c1=O)c1cn(-c2ccccc2)nc1-c1ccccc1	2.6	-0.2	13%	-10	-9	-13
C[C@@H]1CN([C@H](C)CO)C(=O)c2cc(Br)cnc2O[C@@H]1CN(C)C(=O)Cc1ccccc1	x	-3.2	1.5%	x	2	x
Cc1ccc(SC(C)c2nc(-c3ccccc3)no2)cc1 (configuration not stated)	3.9	0.7	1.9%	19	270	23
CC(C)(Oc1ccc(Cl)cc1)C(=O)Nc1cccc(-c2cn3cccnc3n2)c1	-0.2	x	0.1%	-10	x	x
CCOP(=O)(OCC)C(Nc1cccc(C)c1)c1ccc(F)cc1 (configuration not stated)	-0.7	-3.7	4.9%	14	0	-7
O=C(C(=O)N(Cc1ccccc1)Cc1ccccc1)c1c(-c2ccccc2)[nH]c2ccccc12	0.7	u	-1.0%	16	-14	x
COc1cc(C(=O)NCc2nnc(SCC(=O)N3CCCCC3)o2)cc(OC)c1OC	-0.8	-2.3	-0.1%	-14	1	15
COCCN(CC(=O)NCc1ccccc1)C(=O)CCC(=O)Nc1nccs1	-0.4	-3.5	0.3%	-8	7	-6
CCO[C@@H]1OC(C(=O)N2CCN(Cc3ccc4c(c3)OCO4)CC2)=C[C@H](c2coc3ccccc3c2=O)[C@H]1CCCO	-1.0	4.0	1.9%	-12	-5	-27

(list continues)
SMILES	TRPML1 agonist	D2 ag	PINK1 expr mod	TRPML1 blocker	Six1-Eya2 blk	D2 potentiator
S=C1NC(c2cccs2)=CC(c2ccc(Br)cc2)N1 (configuration not stated)	0.2	-5.6	6.4%	8	0	-6
CCOC(=O)CC(N)c1ccc(OC)cc1 (configuration not stated)	-0.8	-3.1	-0.3%	-16	1	-5
COc1cccc(C(=O)N2CCN(C(=O)c3cccc(F)c3)CC2)c1	-0.7	-2.1	-0.5%	1	3	24
CC1CN(C2CCN(S(=O)(=O)c3ccc4ccccc4c3)CC2)CC(C)O1 (configuration not stated)	-0.2	-2.7	0.5%	0	-6	-4
O=c1cc(-c2ccc(Br)cc2)[nH][nH]1	0.7	-3.9	0.0%	-1	4	-22
CCOc1ccc(-c2nnc(SCC(=O)NC(C)(C)C)nc2-c2ccc(OCC)c(OC)c2)cc1OC	1.6	5.1	2.1%	-16	-7	-16
O=C(COc1ccccc1C(=O)O)Nc1nc2ccc([N+](=O)[O-])cc2s1	1.6	-0.6	u	-4	-4	-8
O=C(COC(=O)/C=C/c1cccc(Br)c1)NC1CC1	-0.6	-1.2	0.5%	3	-1	-3
COCN(C#N)c1nc(N(C)C)nc(N(C)C)n1	-0.7	-11	2.7%	9	-6	14
CC(=O)NC12CC3CC(C1)CC(C(=O)Nc1c(C)n(C)n(-c4ccccc4)c1=O)(C3)C2	0.4	-5.7	1.2%	15	4	-15
